Vaccinia inh: Vaccinia orthopox stage-specific inhibition | Vaccinia-infected cells, mCherry/Venus stage reporter fluorescence; hits give low values; some inactives read as strong as hits | activity change (mCherry), % (concentration not given with the values) | hit rate 0.01% among 89,000;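 active = mCherry past -33% and 40 or more points under the early reporter, replicates agreeing; inconclusive = past -33% without that gap or agreement; tested in A549 cells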;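 note: scaled between vehicle wells and reference inhibitor wells; 23 nL library stock went into each well; one replicate is shown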
Vaccinia inh Venus: further read-out of Vaccinia inh, marked with its call; activity change (Venus), %; measured here: Venus reporter, other viral stage;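 negative = less Venus signal; first of two replicates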
The depositor's hits bear a star; ? = inconclusive; . = not tested or not shown. Some of the compounds tested (hit frequency here may not be typical).

A first look, four compounds:
SMILES | Vaccinia inh | Vaccinia inh Venus
CC(C)NC(=O)N(C)C[C@H]1Oc2ccc(NC(=O)Nc3ccc4c(c3)OCO4)cc2C(=O)N([C@@H](C)CO)C[C@H]1C | 22 | 13
C[C@@H]1CN([C@@H](C)CO)C(=O)c2cc(NS(=O)(=O)c3cn(C)cn3)ccc2O[C@@H](C)CCCCO[C@H]1CN(C)Cc1ccncc1 | 18 | 8
C[C@@H]1CN([C@H](C)CO)S(=O)(=O)c2ccc(C#Cc3ccccc3F)cc2O[C@H]1CN(C)C(=O)Cc1ccccc1 | ? | .
CCCNC(=O)C[C@H]1CC[C@H]2[C@@H](COC[C@H](O)CN2Cc2ccncc2)O1 | 5 | 3

Results, from the start:
SMILES | Vaccinia inh | Vaccinia inh Venus
CC(C)NC(=O)N(C)C[C@H]1Oc2ccc(NC(=O)Nc3ccc4c(c3)OCO4)cc2C(=O)N([C@@H](C)CO)C[C@H]1C | 22 | 13
C[C@@H]1CN([C@@H](C)CO)C(=O)c2cc(NS(=O)(=O)c3cn(C)cn3)ccc2O[C@@H](C)CCCCO[C@H]1CN(C)Cc1ccncc1 | 18 | 8
C[C@@H]1CN([C@H](C)CO)S(=O)(=O)c2ccc(C#Cc3ccccc3F)cc2O[C@H]1CN(C)C(=O)Cc1ccccc1 | ? | .
CCCNC(=O)C[C@H]1CC[C@H]2[C@@H](COC[C@H](O)CN2Cc2ccncc2)O1 | 5 | 3
Cc1noc(C)c1S(=O)(=O)Nc1ccc2c(c1)CC(=O)N([C@@H](C)CO)C[C@H](C)[C@@H](CN(C)S(=O)(=O)c1cn(C)cn1)O2 | 3 | -3
C[C@@H]1CCCCO[C@H](CN(C)C(=O)Nc2cccc3ccccc23)[C@@H](C)CN([C@@H](C)CO)C(=O)c2cc(NC(=O)CCCN(C)C)ccc2O1 | 26 | 20
C[C@@H]1CN([C@H](C)CO)C(=O)Cc2cc(NS(=O)(=O)c3cn(C)cn3)ccc2O[C@@H]1CN(C)CC1CC1 | 11 | 10
COc1ccc(S(=O)(=O)N(C)C[C@H]2Oc3ccc(NC(=O)Cn4cnnn4)cc3CC(=O)N([C@H](C)CO)C[C@H]2C)cc1 | 5 | -1
C[C@H](CO)N1C[C@H](C)[C@H](CN(C)C(=O)Nc2ccc(F)cc2)OCCCC[C@H](C)Oc2ccc(NC(=O)CCC(F)(F)F)cc2C1=O | -10 | -6
Cc1noc(C)c1NC(=O)Nc1ccc2c(c1)C(=O)N([C@@H](C)CO)C[C@H](C)[C@H](CN(C)CC1CCCCC1)O2 | 7 | -3
Cc1noc(C)c1NC(=O)Nc1ccc2c(c1)C(=O)N([C@@H](C)CO)C[C@H](C)[C@H](CN(C)C)OCCCC[C@@H](C)O2 | 9 | 3
CCS(=O)(=O)N1[C@H](CO)[C@@H](c2ccc(C#CCC3CCCC3)cc2)[C@@H]1C#N | -13 | -11
C[C@H](CO)N1C[C@H](C)[C@H](CN(C)C(=O)Nc2cccc3ccccc23)Oc2ccc(NC(=O)Nc3ccc(C(F)(F)F)cc3)cc2CC1=O | 7 | 12
C[C@H](CO)N1C[C@H](C)[C@H](CN(C)Cc2ccc(Cl)c(Cl)c2)Oc2ccc(NS(=O)(=O)c3ccccc3)cc2CC1=O | ? | .
COCC#Cc1cnc2c(c1)C(=O)N([C@@H](C)CO)C[C@@H](C)[C@H](CN(C)C(=O)c1cccc(F)c1)O2 | 20 | 11
Cc1ccccc1S(=O)(=O)N1CCCCN2[C@H](CO)[C@H](c3ccc(C#CCN(C)C)cc3)[C@H]2C1 | -23 | -22
COc1ccc2c3c(n(C)c2c1)[C@H](CO)N(C(=O)c1ccc(F)cc1)CC31CCN(C(C)=O)CC1 | 25 | 8
COC(=O)C[C@@H]1CC[C@H]2[C@H](COc3ccc(NC(=O)Nc4ccc(C)cc4)cc3C(=O)N2C)O1 | -12 | -7
C[C@@H]1CN([C@H](C)CO)C(=O)c2cc(NC(=O)Cc3cn(C)c4ccccc34)ccc2O[C@@H]1CN(C)C(=O)Nc1cccc2ccccc12 | 7 | 3
COc1ccc2c3c([nH]c2c1)[C@H](CO)N(CC1CC1)CC31CCN(C(=O)c2ccc(F)cc2)CC1 | 0 | 2
COCC(=O)Nc1ccc2c(c1)C(=O)N(C)C[C@@H](OC)[C@@H](C)CN(C(=O)NC(C)C)[C@@H](C)CO2 | -2 | 6
C[C@H](CO)N1C[C@H](C)[C@@H](CN(C)C(=O)Nc2ccc3c(c2)OCO3)OCCCC[C@H](C)Oc2ccc(NC(=O)Nc3ccccc3)cc2C1=O | 11 | 9
C[C@@H](NC(=O)[C@H]1N[C@H]2c3ccc(-c4cncnc4)c(=O)n3C[C@H]2[C@@H]1CO)c1ccccc1 | -2 | 8
COc1ccc(NC(=O)Nc2cccc3c2O[C@@H](CN(C)S(=O)(=O)c2ccc(C)cc2)[C@@H](C)CN([C@@H](C)CO)C3=O)cc1 | ? | .
CO[C@@H]1CN(C)C(=O)c2cc(NC(=O)C3CC3)ccc2OC[C@H](C)N(CC2CCCC2)C[C@@H]1C | -2 | 4
Cc1noc(C)c1NC(=O)N(C)C[C@H]1Oc2c(NS(=O)(=O)c3c(C)noc3C)cccc2C(=O)N([C@@H](C)CO)C[C@H]1C | -5 | -10
COc1ccc2c3c([nH]c2c1)[C@H](CO)N(Cc1ccc(Cl)cc1)CC31CCN(Cc2nccs2)CC1 | -27 | -19
COCC#Cc1ccc2c(c1)O[C@H](CN(C)S(C)(=O)=O)[C@@H](C)CN([C@H](C)CO)S2(=O)=O | 6 | 5
C[C@@H]1CCCCO[C@@H](CN(C)C(=O)NC2CCCCC2)[C@H](C)CN([C@H](C)CO)C(=O)c2cc(NS(=O)(=O)c3cn(C)cn3)ccc2O1 | -1 | -1
Cc1noc(C)c1NC(=O)N(C)C[C@H]1Oc2ccc(NC(=O)C3CC3)cc2CC(=O)N([C@H](C)CO)C[C@@H]1C | 8 | 2

Remaining list, next part
SMILES | Vaccinia inh | Vaccinia inh Venus
COc1ccc(S(=O)(=O)N(C)C[C@H]2Oc3ncc(Br)cc3C(=O)N([C@@H](C)CO)C[C@@H]2C)cc1 | 0 | 7
C[C@@H]1CN([C@H](C)CO)C(=O)c2cc(NC(=O)c3ccncc3)ccc2O[C@H]1CN(C)S(C)(=O)=O | 13 | 6
COc1ccc2c3c([nH]c2c1)[C@@H](CO)N(C(=O)CN(C)C)CC31CCN(Cc2ccncc2)CC1 | 13 | 8
C[C@@H]1CN([C@H](C)CO)C(=O)c2cc(NC(=O)CCCN(C)C)ccc2O[C@@H]1CN(C)S(=O)(=O)c1cn(C)cn1 | 14 | 4
C[C@@H]1CN([C@H](C)CO)C(=O)c2cc(NS(=O)(=O)c3ccccc3)ccc2O[C@@H]1CN(C)S(=O)(=O)c1cccs1 | 3 | 3
CC=Cc1ccc2n(c1=O)C[C@@H]1[C@@H](CO)[C@H](C(=O)N3CCCCC3)[C@H]2N1C(=O)C1CC1 (mixture of isomers) | 23 | 6
CNC[C@@H]1Oc2ccc(NS(=O)(=O)c3ccc(Cl)cc3)cc2CC(=O)N([C@@H](C)CO)C[C@@H]1C | 9 | 2
COc1ccc(CN(C)C[C@@H]2OCCCC[C@@H](C)Oc3ccc(NC(=O)NC(C)C)cc3C(=O)N([C@@H](C)CO)C[C@H]2C)cc1 | 5 | 9
Cc1ccc(S(=O)(=O)NCC[C@H]2CC[C@H](NS(=O)(=O)c3ccccc3Cl)[C@H](CO)O2)cc1 | -11 | -8
CN(C)C(=O)[C@@H]1[C@@H](CO)[C@@H]2Cn3c(cccc3=O)[C@@H]2N1CC1CCCCC1 | 7 | 2
O=C(C[C@@H]1C[C@@H]2c3cc(NS(=O)(=O)c4ccc(F)cc4)ccc3O[C@@H]2[C@H](CO)O1)NCc1ccc(Oc2ccccc2)cc1 | 11 | 10
COc1ccc(C#Cc2ccc3c(c2)[C@@H]2[C@@H](CCN2S(=O)(=O)c2ccccc2C)[C@@H](CO)N3C)cc1 | 19 | 11
COc1cccc(CN2[C@@H](CO)[C@@H](c3ccccc3)C23CN(C(=O)C2CC2)C3)c1 | -1 | 3
COCC(=O)N(C)C[C@H]1Oc2ncc(-c3ccc(F)cc3)cc2C(=O)N([C@H](C)CO)C[C@@H]1C | 23 | 10
C[C@H](CO)N1C[C@H](C)[C@@H](CN(C)S(=O)(=O)c2cccs2)Oc2ccc(NC(=O)CCCN(C)C)cc2C1=O | -1 | 0
Cc1noc(C)c1S(=O)(=O)Nc1ccc2c(c1)CC(=O)N([C@H](C)CO)C[C@H](C)[C@@H](CN(C)Cc1ccccc1)O2 | -12 | -4
C[C@@H]1CCCCO[C@H](CN(C)Cc2ccc(C(=O)O)cc2)[C@@H](C)CN([C@H](C)CO)C(=O)c2cc(NC(=O)c3ccncc3)ccc2O1 | 13 | -3
C[C@H]1CN([C@@H](C)CO)C(=O)c2cc(-c3cccc(C#N)c3)cnc2O[C@H]1CN(C)Cc1cncnc1 | 34 | 16
O=C(C1CC1)N1[C@H](CO)[C@H]2c3ccccc3NC[C@H]21 | 0 | -3
C[C@H]1CN([C@@H](C)CO)C(=O)c2cccc(NC(=O)NC3CCCCC3)c2O[C@@H]1CN(C)CC1CC1 | 3 | -8
COc1ccc(-c2ccc3c(c2)[C@@H]2[C@@H](CCN2C(=O)c2cnccn2)[C@@H](CO)N3)cc1 | 7 | 9
C[C@H](CO)N1C[C@H](C)[C@@H](CN(C)C)Oc2cc(C#Cc3cccc(F)c3)ccc2S1(=O)=O | -29 | -18
O=C(C1CCOCC1)N1CC(=O)N2[C@H](C1)[C@@H](c1ccc(C#Cc3cccc(F)c3)cc1)[C@@H]2CO | ? | .
C[C@H](CO)N1C[C@H](C)[C@H](CN(C)S(=O)(=O)c2ccccc2)Oc2ccc(NC(=O)CCN3CCOCC3)cc2CC1=O | 35 | 28
O=C(C[C@@H]1C[C@H]2c3cc(NC(=O)NC4CCCC4)ccc3O[C@H]2[C@@H](CO)O1)NCCc1ccccc1 | 15 | 17
O=C(C1CCOCC1)N1CC(=O)N2[C@H](C1)[C@H](c1ccc(C#CC3CCCC3)cc1)[C@@H]2CO | 2 | 1
O=C(O)C[C@H]1C[C@H]2c3cc(NS(=O)(=O)c4ccccc4)ccc3O[C@H]2[C@@H](CO)O1 | 25 | 14
COCC#Cc1ccc([C@@H]2[C@@H](C#N)N(C(=O)NC3CCCCC3)[C@@H]2CO)cc1 | 8 | 6
CCCNC(=O)C[C@@H]1C[C@@H]2c3cc(NC(=O)Nc4ccccc4F)ccc3O[C@@H]2[C@H](CO)O1 | 18 | 20
C[C@H](CO)N1C[C@H](C)[C@@H](CN(C)Cc2ccc(-c3ccccc3)cc2)Oc2ccc(NC(=O)CCCN(C)C)cc2CC1=O | ? | .

Continuation.
SMILES | Vaccinia inh | Vaccinia inh Venus
Cc1cc(C(=O)Nc2cccc3c2O[C@@H](CN(C)CC2CCCCC2)[C@H](C)CN([C@@H](C)CO)C3=O)n(C)n1 | ? | .
CCNC(=O)C[C@H]1C=C[C@@H](NS(=O)(=O)c2ccc(F)cc2)[C@@H](CO)O1 | 1 | 9
Cc1noc(C)c1S(=O)(=O)N(C)C[C@@H]1OCc2ccccc2-c2c(n(C)c3ccccc23)C(=O)N([C@H](C)CO)C[C@@H]1C | ? | .
C[C@H](CO)N1C[C@H](C)[C@H](CN(C)C)Oc2cc(C#Cc3ccccc3)ccc2S1(=O)=O | ? | .
C[C@H](O)C#Cc1ccc2c(c1)O[C@H](CN(C)CC1CCOCC1)[C@H](C)CN([C@@H](C)CO)S2(=O)=O | 12 | 3
CO[C@@H]1CN(C)C(=O)c2cc(NC(=O)NC(C)C)ccc2OC[C@@H](C)N(C(=O)CC2CC2)C[C@H]1C | -1 | 2
Cc1ccc(S(=O)(=O)N[C@@H]2CC[C@H](CCNS(=O)(=O)Cc3ccccc3)O[C@@H]2CO)cc1 | -16 | 0
C[C@H](CO)N1C[C@H](C)[C@H](CN(C)CC2CC2)Oc2ccc(NC(=O)c3ccncc3)cc2C1=O | -6 | 6
CC(C)NC(=O)Nc1ccc2c(c1)C(=O)N([C@H](C)CO)C[C@H](C)[C@@H](CN(C)Cc1ccc(Cl)c(Cl)c1)OCCCC[C@@H](C)O2 | -7 | -11
C[C@H]1CN([C@@H](C)CO)C(=O)c2cccc(NC(=O)c3ccc(-c4nccs4)cc3)c2O[C@H]1CN(C)S(=O)(=O)c1ccccc1 | 11 | 30
C[C@@H]1CN([C@H](C)CO)C(=O)c2cc(C#CC3(O)CCCC3)cnc2O[C@@H]1CN(C)S(=O)(=O)c1ccccc1 | 18 | 16
O=C(C[C@@H]1CC[C@@H]2[C@H](COC[C@H](O)CN2Cc2cc(F)cc(F)c2)O1)NC1CCCC1 | 16 | 16
COc1ccc(CN(C)C[C@@H]2OCCCC[C@H](C)Oc3ccc(NC(=O)C4CCCCC4)cc3C(=O)N([C@H](C)CO)C[C@@H]2C)cc1 | ? | .
COc1ccc(NC(=O)N(C)C[C@H]2OCCCC[C@@H](C)Oc3ccc(NS(=O)(=O)c4cccs4)cc3C(=O)N([C@@H](C)CO)C[C@H]2C)cc1 | 6 | 12
C[C@H](CO)N1C[C@H](C)[C@H](CN(C)Cc2ccc(-c3ccccc3)cc2)Oc2ccc(NS(=O)(=O)c3cccs3)cc2C1=O | -28 | -26
COc1ccc(CN(C)C[C@H]2Oc3c(NC(=O)Nc4ccc(OC)cc4)cccc3C(=O)N([C@H](C)CO)C[C@@H]2C)cc1 | 14 | 10
CCNC(=O)C[C@@H]1CC[C@@H]2[C@@H](COc3ccc(NC(C)=O)cc3C(=O)N2C)O1 | 14 | 13

Of the compounds above, these contain a cyano group:
SMILES | Vaccinia inh | Vaccinia inh Venus
CCS(=O)(=O)N1[C@H](CO)[C@@H](c2ccc(C#CCC3CCCC3)cc2)[C@@H]1C#N | -13 | -11
C[C@H]1CN([C@@H](C)CO)C(=O)c2cc(-c3cccc(C#N)c3)cnc2O[C@H]1CN(C)Cc1cncnc1 | 34 | 16
COCC#Cc1ccc([C@@H]2[C@@H](C#N)N(C(=O)NC3CCCCC3)[C@@H]2CO)cc1 | 8 | 6

High-throughput results deposited in PubChem BioAssay by Broad Institute.
